Vif TR-FRET: HIV-1 Vif–A3G interaction blockers – biochemical, TR-FRET, GST-Vif 1-94, biotin-A3G peptide, dose response retest, primary screen (AID 1117319); TR-FRET GST-Vif / biotin-A3G peptide binding; higher % means a stronger effect; test concentration not given here; strong numbers were not always called active; inhibition, %, or IC50 in µM where a hit was titrated; 0.57% of 260,000 active;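 active = above the screen mean plus three standard deviations and confirmed in dose response; inconclusive = results disagree or hit not tested in dose response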;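 note: Vif residues 1-94 fused to GST binding biotinylated APOBEC3G peptide 110-148; 0% = full assay without inhibitor and 100% = GST in place of GST-Vif; retest series ran down from 100 µM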
HNF4A DNA FP: change in binding of human HNF4 alpha to DNA; P41235; HNF4a-FITC DNA binding, fluorescence polarization, 1 h; activity change, % at 10 µM; 0.3% of 360,000 active; AID 1224865; in the data active = activity change above about 30%, passing the limit was not always enough;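 note: controls were the assay level and a saturating level of protein; the project sought stronger binding though the title names inhibitors; some compounds called inactive have numbers as strong as hits; positive values seem to mean higher polarization but the record does not say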
Target sequence (P41235 whole entry, looked up): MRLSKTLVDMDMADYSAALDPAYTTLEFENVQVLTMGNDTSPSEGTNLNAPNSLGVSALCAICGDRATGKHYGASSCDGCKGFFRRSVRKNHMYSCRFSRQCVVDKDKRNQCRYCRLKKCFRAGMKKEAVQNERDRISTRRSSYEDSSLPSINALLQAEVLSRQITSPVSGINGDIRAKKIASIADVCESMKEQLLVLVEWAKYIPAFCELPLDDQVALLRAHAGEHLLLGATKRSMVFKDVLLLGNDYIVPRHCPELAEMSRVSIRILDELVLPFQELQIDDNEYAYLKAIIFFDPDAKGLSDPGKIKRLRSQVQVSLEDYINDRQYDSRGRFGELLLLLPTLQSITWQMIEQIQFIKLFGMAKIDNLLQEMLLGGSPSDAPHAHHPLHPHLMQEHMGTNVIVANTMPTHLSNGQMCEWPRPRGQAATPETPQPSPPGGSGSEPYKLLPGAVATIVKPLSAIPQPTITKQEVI
B2AR ag: agonists of human beta-2 adrenergic receptor inducing internalization; P07550; response, % (no concentration beside the values); AID 504454; 0.43% of 340,000 active; Am2.2-beta2AR cells, FAP receptor internalization, flow cytometry; reference of the scale not given here;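 active = response above a set limit, near 3 SD of response in nonfluorescent compounds, cut at about 42% in these data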;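 note: stock transfer was 100 nL into about 11 µL; a reference agonist was the positive control; negative values mostly stem from fluorescent compounds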
Target sequence (P07550 whole entry, looked up): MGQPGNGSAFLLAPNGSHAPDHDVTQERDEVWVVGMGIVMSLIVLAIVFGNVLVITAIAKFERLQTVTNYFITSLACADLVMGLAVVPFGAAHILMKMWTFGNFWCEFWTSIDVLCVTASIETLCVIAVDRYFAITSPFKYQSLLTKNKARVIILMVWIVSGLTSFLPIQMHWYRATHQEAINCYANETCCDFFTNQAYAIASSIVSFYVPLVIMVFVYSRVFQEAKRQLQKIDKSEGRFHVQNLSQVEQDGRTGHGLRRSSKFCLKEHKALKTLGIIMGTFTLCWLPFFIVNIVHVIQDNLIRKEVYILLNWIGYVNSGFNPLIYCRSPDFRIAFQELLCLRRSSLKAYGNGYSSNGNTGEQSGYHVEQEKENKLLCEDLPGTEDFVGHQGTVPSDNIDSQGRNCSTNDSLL
UCH37 DUB inh: inhibitors of human deubiquitinating enzyme UCH37 | 0.33% of 330,000 active | purified proteasome/UCH37, Ub-AMC cleavage fluorescence | inhibition, % (no concentration beside the values) | AID 588478;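 active = mean of two replicates above 20%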;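 note: 0% = compound-free wells with enzyme and 100% = wells lacking proteasome; stock transfer was 100 nL into about 20 µL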
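assay system = human UCH37 enzyme supplied as purified proteasome complex | amount = proteasome at 0.15 nM in the dispensed enzyme solution | schedule = 30 min compound-proteasome preincubation then 25 min substrate reaction, room temperature | measured by = fluorescence, ex 355 nm, em 460 nm | benchmarks = no-proteasome wells (full inhibition) and compound-free wells (no inhibition)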
A1 inh: inhibitors of the anti-apoptotic protein A1, read as caspase activation; MEF A1-2A-BIM cells, Caspase-Glo 3/7 luminescence, 3 h; percent of clofoctol response, vehicle zero; caspase activation, % (concentration not given with the values); 0.066% of 330,000 active; AID 2462;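 active = over half of replicate activation scores above 10%, or exactly half above 10 with the replicate mean above 10; inconclusive = replicate mean below 10 yet half the replicates above 10; inactive = over half of replicates below 10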;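 note: wells of about 30 µL received 50 nL stock; many hits fall short of the cut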
LANA-H2A inh: blocks KSHV LANA binding to histone H2A/H2B. 0.6% of 320,000 active. cell-free LANA-H2A/H2B peptide, fluorescence polarization. inhibition, % (test concentration not listed). Q9QR71; in the data active = inhibition mostly above about 10%, no sharp cut-off; inactive = mostly below about 6.7%;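 note: stock transfer was 7.5 nL into about 10 µL; 0% = median of vehicle wells and 100% = median of positive control wells; one replicate is shown; the record names a cut of 25% in any replicate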
Ecoli growth: E. coli growth inhibition | OD600 absorbance (no concentration beside the values) | 0.21% of 330,000 active | Escherichia coli growth, OD600, 23 h; hits give low values;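 active = OD600 absorbance below the run mean of sample wells minus 3.6 SD, in any replicate, cut at about 0.56 in these data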;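 note: stock transfer was 300 nL into about 60 µL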
Numbers without * were called inactive; ? = inconclusive; . = no result given.

The line under a structure holds: Ecoli growth	A1 inh	HNF4A DNA FP	UCH37 DUB inh	Vif TR-FRET	LANA-H2A inh	B2AR ag
Cc1ccc(OCc2cc(C(=O)N3CCCC3)no2)cn1
→ 0.59	-1.0	2.8	0.6	.	2.9	7
O=C(c1ccc2c(=O)n(Cc3ccccc3)c(=S)[nH]c2c1)N1CCCC1
→ 0.67	0.3	-1.1	7.9	.	-1.5	-1
CC1CC(C)CN(S(=O)(=O)N2CCCC(C(=O)NCCCN3CCOCC3)C2)C1 (stereo not given)
→ 0.71	-0.9	-1.8	1.5	.	-4.7	-3
CCC(C)n1ncn(-c2ccc(N3CCN(c4ccc(O)cc4)CC3)cc2)c1=O (stereo not given)
→ 0.72	1.0	0.6	3.6	25%	2.3	1
Cc1ccc(NC(=O)CCCCCN2C(=O)[C@@H]3Cc4ccccc4CN3C2=O)c(Cl)c1
→ 0.59	0.3	0.9	0.7	.	0.9	-3
Cc1ccc(CN(C(=O)COc2cccc(C)c2C)C2CCS(=O)(=O)C2)o1 (stereo not given)
→ 0.73	0.9	-0.2	3.9	.	0.5	-1
O=C(NCCCc1ccccc1)c1ccc(F)cc1
→ 0.63	-4.7	-1.9	4.4	2%	-15	-6
O=C1CC(C(=O)N2CCN(c3ccc(F)cc3)CC2)CN1CCc1ccccc1 (stereo not given)
→ 0.69	-0.2	1.6	2.7	4%	-2.8	-2
CCc1n[nH]c(=S)n1/N=C/c1ccccc1OCc1ccc(Cl)cc1
→ .	-0.1	2.8	.	.	6.3	-5
N#Cc1cccc(OCC(=O)NC(=O)NCc2ccccc2)c1
→ 0.64	1.7	3.3	0.7	-4%	1.4	-3
S=c1[nH]nc(-c2ccc(Cl)cc2)n1-c1ccc(Cl)cc1
→ 0.59	0.3	-2.8	0.6	.	0.7	14
CC(=O)NC1(c2ccccc2)CCN(c2nc(C)cc(C)n2)CC1
→ 0.73	-0.3	-4.9	-7.0	-3%	-1.7	0
CC(C)CCn1c(CN2CCOCC2)nc2c1c(=O)n(C)c(=O)n2C
→ 0.71	1.6	-1.5	4.6	7%	1.6	-4
Cn1ncc2c(NNC(=O)Cc3cccc4ccccc34)ncnc21
→ 0.7	0.9	-0.5	5.6	.	.	-4
COc1cc(NC(=O)CSC(=S)N2CCCC2)c(OC)cc1Cl
→ 0.66	-0.2	1.0	2.4	-3%	5.0	8
CCc1c(C)nc2c(-c3ccccc3)c(-c3ccccc3)[nH]n2c1=O
→ 0.68	0.2	0.0	-0.2	.	-1.6	0
O=C(NNC(=S)Nc1ccc(OC(F)F)cc1)c1cc2c(s1)CCCC2
→ 0.7	0.0	0.8	0.4	4%	-2.0	5
CCOc1ccc(C(=O)NNC(=O)CN2C(=O)C3CC=CCC3C2=O)cc1OC (stereo not given)
→ 0.71	1.4	-1.7	3.2	.	7.8	-4
O=C(Nc1nnc(SCc2ccc(Cl)cc2)s1)C1CC(=O)N(Cc2ccccc2)C1 (stereo not given)
→ 0.68	1.0	-2.4	4.4	17%	2.3	1
NC(=O)C1CCN(C(=O)c2ccc3c(=O)n(Cc4ccco4)c(SCC(=O)c4ccccc4)nc3c2)CC1
→ 0.7	-0.2	1.4	0.9	13%	-0.8	2

Going on with the list.
The line under a structure holds: Ecoli growth	A1 inh	HNF4A DNA FP	UCH37 DUB inh	Vif TR-FRET	LANA-H2A inh	B2AR ag
C/C(=N/NC(=O)CNc1ccc(Cl)cc1C)c1ccc(C)cc1
→ .	0.2	0.7	.	-1%	1.5	4
CCCC(=O)Nc1nnc(SCC(=O)NCc2ccc3c(c2)OCO3)s1
→ 0.7	1.8	-2.9	4.2	.	.	1
CCN(CCn1cccn1)C(=O)CCc1nnc(C2CCCCC2)o1
→ 0.71	-0.4	0.8	2.5	-3%	12	8
CCOc1cc(C(=O)Nc2ccc(S(=O)(=O)N3CCCCC3)cc2)ccc1OCC(=O)N1CCOCC1
→ .	-0.7	-3.0	.	.	-1.3	-1
Cc1ccc(N=C2NC(=O)/C(=C/c3cccn3C)S2)cc1
→ 0.7	-1.4	17	7.6	-2%	-2.0	6
CN1CCN(C(=O)c2ccccc2-c2nc(-c3ccc(Cl)cc3)no2)CC1
→ 0.66	-0.5	2.7	4.5	15%	0.4	-5
O=C(CN1CCN(C(=O)c2ccc(-c3nc4ccccc4s3)o2)CC1)Nc1ccc(F)cc1
→ 0.69	0.0	3.3	-4.3	-10%	-3.0	16
CCC1(CC)C(=O)C2=C3C1[C@H](C(=O)OC)C=C(C(=O)OC)C[C@H]3[C@H]1C(=O)NC(=O)[C@H]1[C@H]2C (stereo not given in full)
→ .	0.5	-4.5	2.0	.	5.6	-2
CN(CC(=O)Nc1ccc(Cl)c(C(F)(F)F)c1)C(=O)Cn1cc([N+](=O)[O-])ccc1=O
→ 0.68	0.2	4.0	4.5	6%	2.8	10
NC(=O)C1CCN(c2nc3c(S(=O)(=O)c4ccccc4)nnn3c3ccccc23)CC1
→ 0.69	-0.4	-1.2	6.7	.	9.1	9
COCCn1c(SCC(=O)Nc2ccccc2F)nc2c(c1=O)SCC2
→ 0.71	0.7	2.1	0.9	6%	2.6	-13
CCNc1nc(NCC)nc(N/N=C/c2ccc(OC)cc2)n1
→ .	0.1	-0.8	.	-5%	0.4	-2
CCCCCn1c(SCc2ccncc2)nc2cc(C(=O)NCc3ccco3)ccc2c1=O
→ 0.75	0.4	3.5	4.1	-5%	6.9	4
c1ccc(NCc2ccncc2)cc1
→ 0.69	0.1	-1.7	0.9	.	-2.3	-2
CC(=O)Nc1cccc(C(=O)Oc2cccc(C)c2)c1O
→ 0.69	-0.2	-0.8	-6.8	1%	-9.5	2
CC(C)NC(=O)c1ccccc1NC(=O)C1CC(=O)N(C(C)C)C1 (stereo not given)
→ 0.69	0.8	-0.2	1.9	-6%	4.6	4
Cc1ccc(NC(=S)N2CCCC(O)C2)cc1 (stereo not given)
→ 0.7	-0.2	-0.5	3.9	.	-3.9	-4
CCCCN(CCCC)C(=S)N/N=C/c1c(C)[nH]n(-c2ccccc2)c1=O
→ .	-0.9	-6.2	.	12%	-4.2	15
CC(/C=N/NC(=O)c1cnccn1)=C\c1ccco1
→ .	0.8	0.7	.	31%	1.1	4
CCOc1ccc(N2CC(C(=O)NCC(=O)Nc3ccc(F)c(F)c3F)CC2=O)cc1 (stereo not given)
→ 0.6	0.2	0.8	0.8	76%	-13	-3

(more compounds)
The line under a structure holds: Ecoli growth	A1 inh	HNF4A DNA FP	UCH37 DUB inh	Vif TR-FRET	LANA-H2A inh	B2AR ag
O=C(CSCc1cccc(CSCC(=O)Nc2ccccc2)n1)Nc1ccccc1
→ 0.71	0.4	-0.3	2.6	2%	2.0	6
C=CCN(CC=C)S(=O)(=O)c1ccc(NC(=S)NC(=O)/C=C/c2cccc3ccccc23)cc1
→ 0.78	-0.4	5.6	13	3%	-3.0	2
CC(C)(C)NC(=O)CN1CCC(O)(c2ccccc2)CC1
→ 0.68	-0.5	-0.2	-0.9	-9%	1.0	-8
O=C(NNc1ccccc1)NC(Cc1ccccc1)C(=O)O (stereo not given)
→ .	.	-5.7	.	4%	.	-5
O=C(NCC1CCCO1)c1nc2c(nnn2Cc2ccccc2Cl)c(=O)[nH]1 (stereo not given)
→ 0.7	-0.3	1.1	5.3	4%	-7.8	3
C=CCOC(=O)C1=C[C@@H](c2ccc(Br)cc2)C[C@@H](OCc2ccc(CO)cc2)O1
→ .	-0.2	1.9	-1.6	-4%	0.9	0
COc1ccc(N(CC(=O)Nc2ccc(C)cc2)S(=O)(=O)c2c(C)noc2C)cc1
→ 0.69	0.0	0.5	0.9	4%	1.7	0
CN(C)c1nc(-c2ccccc2)cc(C(F)(F)F)c1C#N
→ 0.7	1.3	-1.2	-7.8	4%	-7.3	13
COCCN(C(=S)Nc1cc(C)cc(C)c1)C(C)c1cccs1 (stereo not given)
→ 0.73	-0.1	0.5	-0.1	.	-3.3	4
COc1ccc(OCC(=O)NC2CCCc3ccccc32)cc1 (stereo not given)
→ 0.64	0.5	1.5	2.4	.	-1.4	0
COc1ccccc1NS(=O)(=O)c1cc(NC(=O)CCc2nc3ccccc3c(=O)[nH]2)ccc1C
→ 0.69	0.7	2.4	-0.2	5%	-0.4	11
COc1ccc(Cn2c(SCc3cc(C)ccc3C)nc3cc(OC)c(OC)cc3c2=N)cc1
→ 0.69	0.8	4.9	2.3	?	1.3	43*
CN(CC(=O)Nc1ccccc1Br)C(=O)c1cccc([N+](=O)[O-])c1
→ 0.67	-0.4	0.1	0.0	19%	0.8	-6
CCCCC(CC(O)COCC(C)C)C(=O)NN (stereo not given)
→ 0.7	0.5	-0.9	-1.8	10%	-1.6	-8
COc1ccc(NC(=O)CN(c2ccc(C)cc2)S(C)(=O)=O)c(OC)c1
→ 0.66	-0.5	-1.4	1.2	22%	-6.5	-1
CCCCCCCCCCCCCCCC[n+]1ccc(C(N)=O)cc1
→ 0.32*	0.6	15	68*	.	9.7	15
Cc1ccc(NC(=O)c2ccc(NS(=O)(=O)c3c(C)noc3C)cc2)cc1C
→ 0.69	-1.4	-0.9	2.3	25%	1.5	6
Clc1cccc(CNc2nnnn2-c2ccccc2)c1
→ 0.73	-0.3	-3.5	0.6	-2%	-1.2	0
O=C1O/C(=C/c2ccccc2)N=C1c1ccccc1
→ 0.65	0.6	-2.3	-2.3	-13%	5.3	23
Brc1ccc(CN2CCN(c3ccccn3)CC2)s1
→ 0.58	-0.3	-4.5	1.6	6%	5.7	-6

B2AR ag: what is marked active above.
structure	HNF4A DNA FP	UCH37 DUB inh	Vif TR-FRET	LANA-H2A inh	B2AR ag
COc1ccc(Cn2c(SCc3cc(C)ccc3C)nc3cc(OC)c(OC)cc3c2=N)cc1	4.9	2.3	?	1.3	43*

(more compounds)
The line under a structure holds: Ecoli growth	A1 inh	HNF4A DNA FP	UCH37 DUB inh	Vif TR-FRET	LANA-H2A inh	B2AR ag
COc1cc(OC)c(C(=O)COc2ncnc3ccccc23)c(OC)c1
→ 0.7	1.0	-0.2	3.8	16%	7.9	-8
Cc1c(-c2ccc(/C=N/NC(=O)C(=O)Nc3ccccc3F)o2)cccc1[N+](=O)[O-]
→ .	-0.3	79*	.	1%	-6.1	5
COC(=O)c1ccc(N2C(=O)CC(N3CCC(O)(c4ccc(Br)cc4)CC3)C2=O)cc1 (stereo not given)
→ 0.7	1.7	0.9	0.7	28%	4.0	-4
CCOC(=O)N/N=C\c1cccc(OC)c1OC/C=C/c1ccccc1
→ .	-0.1	-2.1	.	.	-6.4	-9

Arranged by SMILES length (highest first): 3 of the compounds above
The line under a structure holds: Ecoli growth	A1 inh	HNF4A DNA FP	UCH37 DUB inh	Vif TR-FRET	LANA-H2A inh	B2AR ag
COc1cc(OC)c(C(=O)COc2ncnc3ccccc23)c(OC)c1
→ 0.7	1.0	-0.2	3.8	16%	7.9	-8
O=C1O/C(=C/c2ccccc2)N=C1c1ccccc1
→ 0.65	0.6	-2.3	-2.3	-13%	5.3	23
Brc1ccc(CN2CCN(c3ccccn3)CC2)s1
→ 0.58	-0.3	-4.5	1.6	6%	5.7	-6
